VDR inh: inhibitors of human vitamin D receptor | hit rate 0.93% among 400,000 | Potency, µM, inactives show max response, negative = inhibition, actives largely listed as inhibitors | VDR-SRC2-3 peptide fluorescence polarization, 2 h; active = well fitted inhibition curve with a large enough effect; inconclusive = small, poorly fitted or top-dose-only effect, or another doubt; inactive = no such curve, though single readings can be large or run the other way; note: series mostly up to about 120 µM
Target sequence (P11473 whole entry, looked up): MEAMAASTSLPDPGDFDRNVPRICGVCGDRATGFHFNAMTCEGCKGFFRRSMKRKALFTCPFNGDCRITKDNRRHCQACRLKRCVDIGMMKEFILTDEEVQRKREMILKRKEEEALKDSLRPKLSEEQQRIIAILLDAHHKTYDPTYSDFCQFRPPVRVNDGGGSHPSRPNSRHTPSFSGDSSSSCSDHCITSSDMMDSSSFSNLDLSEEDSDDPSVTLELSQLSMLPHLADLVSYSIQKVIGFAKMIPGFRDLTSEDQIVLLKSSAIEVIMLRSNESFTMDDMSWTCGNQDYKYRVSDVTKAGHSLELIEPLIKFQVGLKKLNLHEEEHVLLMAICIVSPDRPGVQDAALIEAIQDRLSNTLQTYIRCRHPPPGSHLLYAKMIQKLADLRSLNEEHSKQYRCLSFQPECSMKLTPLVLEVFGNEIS
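Measured by FP: displacement of SRC2-3 coactivator peptide from VDR by library compounds, following a two-hour ambient incubation.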
* hit, by the source's call; ? = inconclusive; & = joins results of further samples; [ ] = dose if it differs, or a comment. % is set by controls: 0 for no effect and ±100 for the full control effect; potency is the fitted concentration of half-maximal effect. This is a subset (hit frequency here may not be typical).

cpd | SMILES | VDR inh
1 | NC(=O)CN1C(=O)C(O)(CC(=O)c2ccccc2O)c2ccccc21 (stereo unspecified) | -2.6%
2 | O=C(NCCc1ccccn1)c1cc2ccccc2o1 | 1.5%
3 | COCCNC(=O)CSc1ccccc1C(=O)O | -12.9%
4 | CCCC1O[C@@H]2CC3C4CCC5=CC(=O)C=C[C@]5(C)C4C(OC(C)=O)C[C@]3(C)[C@]2(C(=O)COC(C)=O)O1 (stereo partly specified) | ?
5 | Cc1ccc(S(=O)(=O)N2CCN(CC3CC4C=CC3C4)CC2)cc1 (stereo unspecified) | -2.3%
6 | COc1ccc(NC(=O)CSc2ccc([N+](=O)[O-])cc2)cc1S(=O)(=O)N1CCOCC1 | -24.0%
7 | CC(C)(C)c1cc(C(=O)N/N=C/c2ccc(F)cc2)n(-c2ccccc2)n1 | -0.1%
8 | COc1cc(CNCCN(C)C)c(Br)cc1OC1CCCC1 | -11.5%
9 | Cc1ccc(S(=O)(=O)c2nnn(CC(=O)Nc3ccccc3C)c2N)cc1 | 0.6%
10 | CCCCCCCCCCCCCC[C@@H](O)[C@@H](O)[C@@H](N)CO | 67.4%[activator]
11 | CC(C)C(C(=O)NC(C)(C)C)N(CCN1CCOCC1)C(=O)CNS(=O)(=O)c1ccccc1 (stereo unspecified) | 5.4%
12 | COc1ccc(C2C(C#N)=C(N)N(N(C)C)C3=C2C(=O)CC(C)(C)C3)cc1OC (stereo unspecified) | -9.9%
13 | COc1ccc(NC(=O)COC(=O)c2c3c(nc4ccccc24)CCCC3)cc1Cl | -10.6%
14 | CCn1ncc(Br)c1C(=O)Nc1cccc(F)c1 | -2.1%
15 | Cc1ccc(Cl)cc1N1CCN(C(=O)c2cnc3c(-c4ccc(F)cc4)c(C)nn3c2C)CC1 | -1.3%
16 | COc1ccccc1C(C)NC(=O)c1ccccc1SCC(=O)N1CCCC1 (stereo unspecified) | -9.7%
17 | O=C(NCC1CCCO1)c1ccc(COc2ccccc2)cc1 (stereo unspecified) | -0.3%
18 | Cc1cc(=O)[nH]c(CN2CCC(c3ccccc3)CC2)n1 | -11.7%
19 | COc1ccc(/C=C/C(=O)C2C(=O)C=C(C)OC2=O)cc1O (stereo unspecified) | ?
20 | CC1(C)Oc2ccc3ccc(=O)oc3c2C(N2CCCCC2)C1O (stereo unspecified) | -5.0%

2 of the compounds above, with the structure last.
entry	VDR inh	SMILES
18	-11.7%	Cc1cc(=O)[nH]c(CN2CCC(c3ccccc3)CC2)n1
17	-0.3%	O=C(NCC1CCCO1)c1ccc(COc2ccccc2)cc1 (stereo unspecified)

(cont.)
cpd | SMILES | VDR inh
21 | COC1=C(Nc2ccc(OC)cc2)C(=O)c2ccccc2C1=O | ?
22 | CCOC(=O)C(O)(NC(=O)c1cccnc1)C(F)(F)F (stereo unspecified) | 3.2%
23 | Cc1ccc(C(=O)OC(C)C(=O)NC2CCCCC2C)cc1S(=O)(=O)N1CCOCC1 (stereo unspecified) | -12.8%
24 | CCOc1ccccc1NC(=O)N1CCc2cc(S(=O)(=O)N3CCC(C)CC3)ccc21 | 6.0%
25 | CCC(C)(C)NC(=O)c1ccc2c(c1)N(CC(=O)OC)C(=O)C(C)(C)O2 | 8.4%
26 | CN1CCCCCC1=Nc1ccccc1C#N | 6.0%
27 | O=C(c1ccco1)N1CCN(S(=O)(=O)c2ccc([N+](=O)[O-])cc2)CC1 | -12.9%
28 | CCC(C(=O)Nc1ncc(C)s1)c1ccccc1 (stereo unspecified) | -6.6%
29 | Cc1ccc(Nc2c(-c3ccc(N4CCOCC4)cc3)nc3ncccn23)c(C)c1 | -7.9%&10.2%
30 | O=[N+]([O-])c1cc(Br)c(O)c(C=Nc2ccc(N3CCOCC3)cc2)c1 | ?
31 | Cc1nnc(SCC(=O)Nc2sc3c(c2C(=O)c2ccccc2)CCCC3)s1 | 5.7%
32 | CC(=O)Nc1ccc(S(=O)(=O)Nc2cc(-c3cn4ccccc4n3)ccc2C)cc1 | 4.6%
33 | O=[N+]([O-])c1ccc(N2CCCC2)cc1NC(c1ccccc1)c1ccccc1 | -0.5%
34 | O=C(NC1(C(F)(F)F)Oc2ccccc2O1)N1CCCC1 | 6.2%
35 | CC1(C)Cc2c(c(N3CCOCC3)nc3sc4c(NCCN5CCOCC5)nnnc4c23)CS1 | 4.7%
36 | CN(C)S(=O)(=O)Oc1ccsc1C(=O)Nc1ccccc1Cl | -0.1%
37 | O=C(CN(Cc1ccc(F)cc1)C(=O)c1csnn1)NCc1ccccc1 | -4.9%
38 | COc1ccc(NC(=O)CC2C(=O)N(C)C(=S)N2CCc2ccc(F)cc2)cc1 (stereo unspecified) | 4.8%
39 | Cc1ccc(C(=O)N(Cc2cccs2)C2CCS(=O)(=O)C2)cc1 (stereo unspecified) | -4.8%
40 | O=S(=O)(NCCS(=O)(=O)N1CCN(c2ccccc2)CC1)c1ccc(F)cc1 | -0.2%
41 | CC(C)CC(=O)Nc1nc2nc(-c3ccccc3)cc(=O)n2[nH]1 | -1.1%
42 | CCOC(=O)Nc1ccc(NS(=O)(=O)c2ccc(C)cc2)cc1 | -13.7%
43 | O=C(Nc1scc(-c2cccs2)c1C(=O)O)c1cccs1 | -6.0%
44 | CC(=O)N1CCC(C(=O)OCc2ccc(Cl)cc2)(c2ccccc2)CC1 | -6.0%
45 | COc1ccc(-n2c(=O)cc(N3CCc4ccccc43)[nH]c2=O)cc1 | -7.6%
46 | Cc1cc(C(=O)OCC(=O)N2CCc3ccccc32)c(C)o1 | 13.3%
47 | Cc1cc(Cl)ccc1NC(=S)NCc1ccc(F)cc1 | -9.7%
48 | O=C1c2ccccc2C(=O)N1COc1ccc(S(=O)(=O)N2CCOCC2)cc1[N+](=O)[O-] | 11.3%
49 | COc1ccc(Cl)cc1NC(=O)C1CCN(C(=O)C2CC(=O)N(c3ccc(C)cc3)C2)CC1 (stereo unspecified) | 7.6%
50 | O=C(CN1C(=O)NC2(CCc3ccccc32)C1=O)c1cccs1 (stereo unspecified) | 2.2%

The closing four records of the part before open the next one:
cpd | SMILES | VDR inh
47 | Cc1cc(Cl)ccc1NC(=S)NCc1ccc(F)cc1 | -9.7%
48 | O=C1c2ccccc2C(=O)N1COc1ccc(S(=O)(=O)N2CCOCC2)cc1[N+](=O)[O-] | 11.3%
49 | COc1ccc(Cl)cc1NC(=O)C1CCN(C(=O)C2CC(=O)N(c3ccc(C)cc3)C2)CC1 (stereo unspecified) | 7.6%
50 | O=C(CN1C(=O)NC2(CCc3ccccc32)C1=O)c1cccs1 (stereo unspecified) | 2.2%
51 | Cc1ccc2cccc(SCC(=O)Nc3ccc(F)cc3)c2n1 | 8.4%
52 | CCCC(=O)Nc1nc(C)c(-c2csc(Nc3cc(OC)ccc3OC)n2)s1 | -11.1%
53 | COc1cccc(NC(=O)CSc2nc3c(c(=O)n2C)SC(C)C3)c1 (stereo unspecified) | -4.1%
54 | CCN(CC(O)COCc1ccc(Cl)cc1)C1CCCCC1 (stereo unspecified) | -11.5%
55 | Cc1ccc(OCc2ccccc2Br)c([N+](=O)[O-])n1 | 8.4%
56 | CCc1ccccc1N(C(=O)c1ccco1)C(C(=O)NC1CCCC1)c1cccnc1 (stereo unspecified) | 5.5%
57 | COc1ccc(C(=S)N2CCOCC2)cc1OC(=O)c1cc([N+](=O)[O-])c(C)c([N+](=O)[O-])c1 | 4.0%
58 | CCOC(=O)N1CCN(Cc2nc3cc(NC(=O)c4cccs4)ccc3n2C)CC1 | -0.7%
59 | O=C(CSc1ccc(Cl)cc1)N1N=CCC1c1ccccc1 (stereo unspecified) | -14.6%
60 | COCCCn1c(SCC(=O)Nc2cccc(C(=O)OC)c2)nnc1-c1ccncc1 | 1.4%
61 | CCOc1ccccc1NC(=O)C(=O)CC(=O)c1cccc(OC)c1 | 11.0%
62 | Cc1cc(C)c(S(=O)(=O)NCc2ccc3c(c2)OCO3)c(C)c1 | 4.3%
63 | COc1cc(CN2CCN(C(=O)c3cccc4ccccc34)CC2)cc(OC)c1OC | -5.6%
64 | Cc1ccc(Cl)cc1N1CCN(S(=O)(=O)c2cccc(S(=O)(=O)N3CCCC3)c2)CC1 | -21.6%
65 | Cc1ccc(NC(=O)c2ccc(OC(=O)C(C)Oc3ccc(Cl)cc3C)cc2)cc1 (stereo unspecified) | ?
66 | O=S(=O)(c1ccccc1)n1cc(-c2ccccn2)c(N2CCOCC2)n1 | -7.2%
67 | O=c1n(Cc2ccccc2F)c2ccccc2n1Cc1ccccc1F | 9.9%
68 | COc1ccc(CCCc2nnc(SCC(=O)Nc3ccccc3F)o2)cc1C | -9.6%
69 | CC(=O)c1ccc(-c2cc([C@H]3[C@H]4C=CC[C@@H](C)[C@@H]4C(=O)N3Cc3ccccc3)ccc2F)cc1 | -16.1%
70 | COc1ccc(CCN2C(=O)CC(C(C)c3ccccc3)C2=O)cc1OC (stereo unspecified) | -16.3%
71 | COc1cccc(C(=O)Oc2cc(C)[nH]c(=O)c2[N+](=O)[O-])c1 | 15.6%
72 | CNC(=O)c1[nH]cnc1C(=O)Nc1cccc(Cl)c1 | ?
73 | COCC1CCCN(Cc2cn(-c3ccccc3)nc2-c2ccc3c(c2)OCO3)C1 (stereo unspecified) | -5.8%
74 | CN(CCc1ccccc1)C(=O)c1cccc(NC(=O)Cc2cccc([N+](=O)[O-])c2)c1 | -25.4%
75 | COCCNC(=O)/C(C#N)=C1\N=C(N)c2ccccc21 | -14.9%
76 | O=C(NNC(=O)C1CC1c1ccccc1)Nc1ccccc1 (stereo unspecified) | -10.6%
77 | CCN1C(=O)C(Cc2nc3ccccc3c(=O)n2C)c2ccccc21 (stereo unspecified) | 12.1%
78 | COc1ccc(NC(=O)CN(C)C(=O)c2cc(-c3ccncc3)nc3ccccc23)cc1 | -19.9%
79 | Cc1ccc(S(=O)(=O)NCC[C@@]2(C)C3CCC2(C)C(=O)C3)cc1 (stereo partly specified) | 2.6%
80 | Cc1n[nH]c(=O)c2c(NC(=O)CSc3ccc(Br)cc3)oc(C)c12 | -24.4%
81 | Cc1ccc2cc(-c3noc(C4CCCO4)n3)c(=O)[nH]c2c1 (stereo unspecified) | -2.6%
82 | CN=C1SC(CC(=O)Nc2sc3c(c2C#N)CCCC3)C(=O)N1C (stereo unspecified) | -6.3%
83 | CC1=C(C(=O)OCCCBr)C(c2ccc3c(c2)OCO3)NC(=O)N1 (stereo unspecified) | -10.9%
84 | COC(=O)CC1(CC(N)=O)SCCS1 | -18.0%
85 | CC(C)n1nc(C(=O)NNC(=O)c2ccc(OC(F)F)cc2)c2ccccc2c1=O | 1.0%
86 | COc1cc(/C=N/NC(=O)c2ccncc2)ccc1OC(C)=O | 7.6%
87 | CCOc1ccc(CCNC(=O)Cn2nc(C)n3c(cc4occc43)c2=O)cc1OCC | 17.3%
88 | CCOC(=O)CN(C)C(=O)CCc1nnc(-c2ccc(-c3ccccc3)cc2)o1 | -3.3%
89 | N=c1c(C(=O)NC2CCCC2)cc2c(=O)n3ccccc3nc2n1C1CCCCC1 | -11.3%
90 | COc1ccc(-c2cn3c(n2)sc2cc(C(=O)NCc4ccccc4)ccc23)cc1 | 5.1%

A stretch from further up:
cpd | SMILES | VDR inh
89 | N=c1c(C(=O)NC2CCCC2)cc2c(=O)n3ccccc3nc2n1C1CCCCC1 | -11.3%
90 | COc1ccc(-c2cn3c(n2)sc2cc(C(=O)NCc4ccccc4)ccc23)cc1 | 5.1%

(next part)
cpd | SMILES | VDR inh
91 | O=C(COC(=O)CCc1ccc(S(=O)(=O)N2CCOCC2)cc1)NC1CCCCCC1 | -14.1%
92 | CN(C)CCOCCOc1ccccc1-c1ccccc1 | 6.4%
93 | CC(OC(=O)c1cccc(-n2cnnn2)c1)C(=O)NCc1ccccc1 (stereo unspecified) | -6.3%
94 | C=CCn1c(N)cc(=O)nc1SCC(=O)N1CCN(c2ccc(F)cc2)CC1 | 3.0%
95 | CC(C)CC(c1nnnn1CC1CCCO1)N1CCN(Cc2ccc3c(c2)OCO3)CC1 (stereo unspecified) | 17.5%
96 | CC(C)(C)c1ccc(C(=O)Nc2ncn[nH]2)cc1 | 7.3%
97 | O=C(NNC(=S)NC1CCCCC1)c1cccc(S(=O)(=O)Nc2ccccc2Cl)c1 | -3.8%
98 | C/C(CC(=O)Nc1ccc(C)c(Cl)c1)=N\NC(=O)c1ccco1 | 19.5%
99 | O=[N+]([O-])c1cccc(-c2ccc(/C=N/NC(=S)Nc3cccc(F)c3)o2)c1 | -18.7%
100 | Cc1sc2ncn(CC(=O)NCc3ccco3)c(=O)c2c1-c1ccc(F)cc1 | -19.6%
101 | CCC(C)NC(=O)c1cc2c(Cl)nc3ccc(C)cc3c2s1 (stereo unspecified) | -1.5%
102 | Cc1ccc(-c2c(C(=O)N(C)Cc3ccccc3)oc(=O)c3ccccc23)cc1 | -7.4%&-13.4%
103 | COc1cc(/C=C2\C(=O)N(c3ccc(S(N)(=O)=O)cc3)N=C2C)ccc1OC(=O)c1ccco1 | ?
104 | COC(=O)CSc1ccc(S(=O)(=O)N2CCC(C)CC2)cc1[N+](=O)[O-] | -8.9%
105 | COc1ccccc1P(=O)(c1ccccc1)c1ccccc1 | -25.8%
106 | CC1(C(=O)Nc2cccc3ccccc23)CC1(Br)Br (stereo unspecified) | -16.7%
107 | CCCN1CNC(=S)N(c2ccccc2OC)C1 | -1.3%
108 | CCC(=O)N(C)CCc1cc2c(c(OC)c1/C=N/NC(=O)c1ccc(Br)cc1)OCO2 | ?
109 | NC(=O)CC(NC(=O)c1ccc(Cl)cc1)C(=O)NCCc1ccc(S(N)(=O)=O)cc1 (stereo unspecified) | 1.6%
110 | Cc1ccc(NC(=O)CSc2nc3c(c(=O)[nH]2)CN(Cc2ccccc2)CC3)cc1Cl | 9.4%
111 | Cc1nnc(NC(=O)CCS(=O)(=O)Cc2ccccc2)s1 | 12.5%
112 | O=C(Cn1ccc(=O)[nH]c1=O)Nc1ccc(O)c([N+](=O)[O-])c1 | 16.7%
113 | CN1CCN(CC(=O)Nc2ccc(OC(F)(F)F)cc2)CC1 | 2.4%
114 | CC(=O)Nc1ccc(NC(=O)CCC(=O)OCC(=O)c2cccc([N+](=O)[O-])c2)cc1 | 0.1%
115 | O=C(O)CCN1C(=O)c2ccc(NC(=O)COc3ccccc3)cc2C1=O | -5.1%

Bioassay records (PubChem BioAssay)
